PrP UTR inh: inhibition of PrP 5' UTR reporter expression | cell-based PrP 5' UTR mRNA reporter, plate reader | inhibition, % (concentration not given with the values) | 340,000 tested, 0.35% active;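 active means every replicate at 50% or more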;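 further: 0 = median of the neutral control wells; tested in H4 reporter cells; numbers are from one replicate; inactives centre near -14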
Sa ugtP lethal: growth inhibition of S. aureus ugtP deletion strain; 330,000 tested, 0.54% active; growth inhibition, % (test concentration not listed); S. aureus RN4220 ugtP deletion, OD600 growth, 16 h; some inactives read as strong as hits;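 active means z-score under -3 and OD600 up to 0.15 on both plates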;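 further: plate controls were untreated wells for no effect and antibiotic for full effect; wells of about 80 µL received 100 nL stock; the first replicate is given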
BJeLR lethal: BJeLR cell viability loss; BJeLR (HRASV12) viability, CellTiter-Glo ATP luminescence, 48 h; reference of the scale not given here; inhibition, % (test concentration not listed); 300,000 tested, 0.17% active;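 active means replicate mean above 50%; inconclusive means above 50% but judged a plate artefact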;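 further: 50 nL library stock added to about 25 µL; numbers are from one replicate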
Autofluor counter: counter-screen for toxin protease inhibitors: compound fluorescence. 360,000 tested, 3.1% active. compound autofluorescence counterscreen, microsphere flow cytometry; hits give high values. fluorescence intensity (test concentration not listed);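 active means at least 3 SD above the mean of all compounds, about 16000 in these data; inconclusive means too few beads counted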;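 further: 100 nL of 1 mM stock went into each well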
Mtb hypoxia inh: Mtb hypoxia fluorescent reporter inhibition; 300,000 tested, 0.1% active; AID 1159583; M. tuberculosis hypoxia-regulated fluorescent reporter, fluorescence; fluorescence inhibition, % (test concentration not listed);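 active means 35 to 45% if threefold the growth effect, above 45% if 1.5-fold the growth effect; inactive means the rest, general growth blockers included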;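 further: wells of about 50 µL received 100 nL stock; 0% = vehicle wells and 100% = reference inhibitor wells; whole bacteria with a GFP reporter of the hypoxia response; strong numbers were not always called active; many hits fall short of the cut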
RN4220 kill: S. aureus RN4220 growth inhibition | 330,000 tested, 0.33% active | inhibition, % (concentration not given with the values) | OD600, 16 h;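 active means z-score of -3 or lower and OD600 up to 0.18 on both plates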;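 further: plate controls were untreated cells for no effect and reference antibiotic for full effect; stock transfer was 100 nL into about 80 µL; one replicate is shown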
Mtb hypoxia inh growth: second read-out of Mtb hypoxia inh, no call of its own (marks repeat the call); growth inhibition, %; measured here: M. tuberculosis growth (absorbance);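 0% = vehicle and 100% = reference antibiotic; read after six days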
Starred values were filed as active, the others as inactive; u = inconclusive; x = not tested or not shown.

SMILES	PrP UTR inh	Sa ugtP lethal	BJeLR lethal	Autofluor counter	Mtb hypoxia inh	Mtb hypoxia inh growth	RN4220 kill
NC(=O)c1nnn(-c2ccccc2)c1N	-19	0	7	4200	-10	-4	2.6
Cc1ccccc1OCC(=O)Nc1ccccc1C(=O)NC1CC1	-9	2	-6	5694	-1	8	0.1
COc1ccc(CCNC(=O)CSc2nnc(CNc3ccc(Cl)cc3)o2)cc1OC	-39	-5	6	21392*	4	17	-4.2
CC1(C)Oc2ccc(NC(=O)C3COc4ccccc4O3)cc2O1 (stereo unspecified)	-45	-8	16	4224	0	0	-6.1
O=C(CSc1nc2c(cnn2-c2ccccc2)c(=O)[nH]1)N1CCCCC1	-13	7	-4	3468	14	5	-0.7
COc1ccccc1C(=O)NN=C(C)c1ccc(NC(=O)C2CC2)cc1	x	1	x	x	2	4	6.3
O=C(CNC(=O)/C(=C\c1ccc(F)cc1)NC(=O)c1ccccc1)OCc1ccccc1	-20	x	15	3080	x	x	x
COc1ccc(NS(=O)(=O)c2cccc(C(=O)NN=C(C)c3ccco3)c2)cc1	-8	2	x	u	7	4	3.0
CCOC(=O)N1CCN(C(=O)CN(c2ccc(Oc3ccccc3)cc2)S(C)(=O)=O)CC1	-17	-3	-4	4294	1	7	4.0
CCC(CC)NC(=O)COC(=O)CCC(=O)c1ccc(Cl)cc1	-4	0	-7	4413	3	0	2.2
O=C(CCl)Nc1ccccc1Sc1ccccc1	-9	5	6	2388	14	8	3.8
CN(C)N1C(N)=C(C#N)C(c2ccsc2)C2=C1CCCC2=O (stereo unspecified)	-10	4	-8	2258	4	2	2.9
Cc1ccc(/C=C2/NC(=O)N(Cc3ccccc3F)C2=O)o1	0	4	-4	2480	10	3	4.1
COc1ccc(NC(=O)CCC(=O)OCc2ccc(C(=O)Oc3ccc(Cl)cc3)cc2)cc1	-13	-5	5	19988*	2	0	2.4
Cc1nc(=O)c(-c2ccccc2)c(C)n1CCO	-3	4	0	3504	-6	-2	3.0
O=C(C1c2ccccc2C(=O)N2CCc3ccccc3C12)N1CCN(Cc2ccccc2)CC1 (stereo unspecified)	1	3	-5	3444	22	-1	2.5
CC(Sc1nc(N)cc(N)n1)C(=O)NCCC1=CCCCC1 (stereo unspecified)	-15	1	x	8542	7	10	4.3
CCOC(=O)C1Cn2c(nc3c(c2=O)C(C)(CC)Cc2ccccc2-3)S1 (stereo unspecified)	-17	0	-8	3501	x	x	2.4
O=C(OCC(=O)c1cccs1)c1ccccc1	-63	-5	-7	4195	2	1	5.1
CCc1cc(C(=O)c2ccccc2OC)c(N)s1	-18	1	1	9168	4	-6	2.1
COc1ccc(/C=C/c2nc(N)nc(-c3ccccc3O)n2)cc1OC	13	76	4	2504	-1	3	28
N=c1sccn1CC(=O)Nc1cccc(Oc2ccccc2)c1	-5	-1	-5	4268	x	x	-5.9
Cc1cc(-c2ccc(C)c(S(=O)(=O)NCCc3ccc(S(N)(=O)=O)cc3)c2)on1	-1	5	-1	5093	0	8	3.5
O=C(CSc1ncnc2ccccc12)Nc1cccc(S(=O)(=O)N2CCOCC2)c1	-45	-3	3	4206	-6	-2	2.4
CN(CC(=O)Nc1ccc(Cl)c(C(F)(F)F)c1)C(=O)CCCNC(=O)c1ccc(Cl)cc1	-11	-14	x	4821	-6	-13	-1.2
Cc1ccc2nc(-c3sc4nc(C)cc(C)c4c3N)[nH]c2c1	-67	-12	-5	5868	x	x	7.2
CC(=NNC(N)=O)c1c(F)cccc1F	x	7	x	x	11	9	1.9
CS(=O)(=O)c1ccc(-c2sc3ccccc3c2C(=O)N2CCN(c3ccc(F)cc3)CC2)cc1	-58	-8	x	3767	9	8	7.6
Cc1cc(=O)oc2cc(OCCSCCN3CCCC3)ccc12	x	5	11	4733	17	9	2.2
CCN(c1ccc(C)cc1C)S(=O)(=O)c1nnc(NC(=O)C(C)(C)C)s1	-14	3	-8	3804	-2	5	9.1
Cc1[nH]c2ccccc2c1C=NNc1nc(Nc2ccccc2)nc(N2CCOCC2)n1	x	-25	x	x	11	6	0.8
O=C(O)c1ccc(-n2cccc2C=NNC(=O)c2cc3cc(Br)ccc3o2)cc1	x	3	x	x	17	10	5.5
Cn1c(-c2cccs2)[n+](C)c2ccccc21	-11	-1	13	3309	7	5	7.0
Cc1ccc(CC(NC(=O)c2ccccc2)C(=O)NC(C)C(=O)O)cc1 (stereo unspecified)	-14	1	-3	21689*	9	9	0.7
CCCCn1c(N)c(N(CC(C)C)C(=O)c2cc(-c3ccc(OC)cc3)nc3ccccc23)c(=O)[nH]c1=O	-11	3	x	3468	13	32	0.2
COc1ccc(C(=O)Nc2cccc(NC(=O)c3ccc(OC)cc3OC)n2)c(OC)c1	-7	0	7	4421	-4	-5	5.0
Cn1nc(C(F)(F)F)c(C(=O)Nc2cccc(C(F)(F)F)c2)c1SCc1ccc(Cl)cc1	-12	-26	-7	18600*	5	17	-15
COc1ccc(Cl)cc1N1C(=O)C2CCCN2C1c1ccc(F)c(F)c1 (stereo unspecified)	-20	8	0	5663	x	x	5.3
O=C(c1ccco1)N1CCN(Cc2cc(=O)c(OCc3cccc(Cl)c3)co2)CC1	-22	8	4	5169	3	0	-0.2
CCC(=O)N/N=C/c1ccc(-c2ccc(Cl)cc2)o1	-12	x	-1	4055	x	x	x
O=C(NCC1COc2ccccc2O1)c1ccc(NC(=O)c2ccco2)cc1 (stereo unspecified)	-13	-6	3	2571	x	x	-3.1
N/C(=N\OC(=O)CCC1CCCC1)c1ccc(Cl)cc1	-21	4	-6	u	6	1	2.9
O=[N+]([O-])c1cc(Cl)c(Cl)c(Cl)c1Cl	7	8	x	4107	11	11	6.6
NC(=NOC(=O)C=Cc1ccccc1)c1ccc(Br)cc1	x	-7	x	x	11	4	6.7
CN(C)C1=NCC(Cc2ccccc2)N1CC1CCCCCC1 (stereo unspecified)	x	3	x	x	19	8	1.6
COc1ccc2c(c1)cc1c(=O)n(CC(=O)NCCCOC(C)C)nc(C)n12	-8	6	10	3524	-8	-2	3.1
C=CCn1c(CCNC(=O)c2ccccc2F)nnc1SCC(=O)Nc1ccc(OC)cc1	-8	8	0	3380	17	7	17
CCC(C)(C)NC(=O)C(c1ccccc1F)N(C(=O)c1ccn[nH]1)c1ccccc1 (stereo unspecified)	-10	3	-1	3982	x	x	4.9
CCCCCCCC1CC(CSc2ncn[nH]2)OC1=O (stereo unspecified)	-19	7	-6	4850	16	23	0.3
CCN(CC(=O)NC(C)C)Cc1nc2c(Br)cc(Br)cc2c(=O)[nH]1	-15	x	9	4349	x	x	x
CCCNS(=O)(=O)c1cc2c3c(c1)C(C)C(=O)N3CCC2 (stereo unspecified)	-9	3	13	5209	8	9	5.1
O=C1c2ccc(Oc3ccc4c(c3)C(=O)N(CCCO)C4=O)cc2C(=O)N1CCCO	-18	7	-8	2861	x	x	2.2
O=C(CNC(=O)c1cccs1)OCC(=O)c1ccccc1Cl	-26	12	x	4807	4	9	-0.9
CC(C)N(Cc1nccn1C)C(=O)c1ccc2oc(CCCc3ccccc3)nc2c1	-5	-1	3	6292	-3	14	0.1
COc1ccc(C(c2sc3nc(C)nn3c2O)N2CCC(C(N)=O)CC2)cc1OC (stereo unspecified)	-21	4	1	5479	4	8	-9.4
CCCCn1c(=N)n(CC(=O)c2ccc(Br)s2)c2ccccc21	-33	-6	8	5118	-7	3	-0.3
C(=N\N1CCN(c2ccccc2)CC1)/c1ccccc1	-20	x	-1	3893	x	x	x
O=C(O)CCCNC(=O)CC1S/C(=N/N=Cc2ccccc2O)NC1=O (stereo unspecified)	x	7	x	x	-13	-10	3.0
C/C(=N\NC(=O)CCCNc1cccc(C)c1)c1ccncc1	-17	x	-8	4910	x	x	x
Cc1ccc(CNC(=O)c2ccc(C)s2)cc1	-22	18	-12	6397	x	x	18

Other entries:
SMILES	PrP UTR inh	Sa ugtP lethal	BJeLR lethal	Autofluor counter	Mtb hypoxia inh	Mtb hypoxia inh growth	RN4220 kill
COc1ccc(NS(=O)(=O)c2ccc(N/N=C(\C)c3ccncc3)c([N+](=O)[O-])c2)cc1	-11	x	9	2240	x	x	x
COc1nccnc1NS(=O)(=O)c1ccc(N)cc1	-16	11	10	2933	x	x	4.4
COc1ccc(N(C(=O)c2cccnc2)S(=O)(=O)c2cccc([N+](=O)[O-])c2)cc1	-21	-6	-2	4346	4	10	3.7
Cc1ccc(NC(=O)c2ccc(NCCN)c([N+](=O)[O-])c2)cc1Cl	-17	6	-2	2476	7	-7	-10
COc1ccc(OC)c(C(=O)NC2CC(C)(C)Cc3c2cnn3-c2ccccc2)c1 (stereo unspecified)	-13	5	6	4405	-1	-3	-1.3
CCN(C(=O)COC(=O)C(Cc1ccccc1)N1C(=O)c2ccccc2C1=O)C1CCS(=O)(=O)C1 (stereo unspecified)	-22	2	-8	2275	7	4	-3.5
O=C(Cc1csc(N2CCOCC2)n1)NN=Cc1ccc(Cl)cc1Cl	x	-19	x	x	4	14	7.2
O=C(CS(=O)(=O)c1ccc(Cl)cc1)NCc1ccccc1	-8	1	-3	5502	1	-13	2.6
COc1ccc(C(=O)c2c(N)sc3c2CCN(C)C3)cc1	-14	3	-3	4611	14	5	0.1
O=C(Nc1cccc(C(F)(F)F)c1)c1sc(Cl)nc1C(F)(F)F	-18	-18	12	3457	-9	-2	0.2
c1ccc(Cn2nnc3cnccc32)cc1	1	5	4	6189	8	5	1.9
C/C(=N/NS(=O)(=O)c1ccccc1)c1ccc(NC(=O)C2CC2)cc1	1	x	6	4557	x	x	x
Cn1c(N2CCC(C(N)=O)CC2)nc2c1c(=O)n(Cc1ccc(Br)cc1)c(=O)n2C	-1	0	-2	5868	7	7	-6.6
CC(C)CC(=O)/C(=C/c1ccc(N(C)C)cc1)n1cncn1	-3	14	7	3783	-3	6	10.0
O=C1CC(C2CCCO2)C(=O)N1c1cccc(Cl)c1 (stereo unspecified)	-8	-6	2	3275	6	-1	1.9
N#C/C(=C\c1ccc(-c2ccc(C(=O)O)cc2)o1)C(=O)NCC1CCCO1 (stereo unspecified)	-7	-4	-1	9115	7	7	4.6
COc1cc(C=NN2CCN(c3ccccc3)CC2)ccc1OC(C)=O	x	1	x	x	15	9	5.5

Screening data as filed in PubChem BioAssay.
